# PABP FP inh = PABP poly(A) RNA binding inhibitors, primary screen, biochemical, fluorescence polarization, uHTS. inhibition, % at 35 µM. 290,000 tested, 1% active. AID 2014, 2009;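 active = 50% or more with normal probe brightness, or confirmed in later tests; inconclusive = above 50% with abnormal brightness, or retests that disagree; inactive = below 50% or failed in later tests; about a fifth of its hits are not listed in these tables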;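 note: calls also rest on retests at 20 µM and on dose response follow-up; controls were probe without protein and protein plus probe with vehicle; some compounds called inactive have numbers as strong as hits; many hits fall short of the cut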
# Target sequence (P11940 whole entry, looked up): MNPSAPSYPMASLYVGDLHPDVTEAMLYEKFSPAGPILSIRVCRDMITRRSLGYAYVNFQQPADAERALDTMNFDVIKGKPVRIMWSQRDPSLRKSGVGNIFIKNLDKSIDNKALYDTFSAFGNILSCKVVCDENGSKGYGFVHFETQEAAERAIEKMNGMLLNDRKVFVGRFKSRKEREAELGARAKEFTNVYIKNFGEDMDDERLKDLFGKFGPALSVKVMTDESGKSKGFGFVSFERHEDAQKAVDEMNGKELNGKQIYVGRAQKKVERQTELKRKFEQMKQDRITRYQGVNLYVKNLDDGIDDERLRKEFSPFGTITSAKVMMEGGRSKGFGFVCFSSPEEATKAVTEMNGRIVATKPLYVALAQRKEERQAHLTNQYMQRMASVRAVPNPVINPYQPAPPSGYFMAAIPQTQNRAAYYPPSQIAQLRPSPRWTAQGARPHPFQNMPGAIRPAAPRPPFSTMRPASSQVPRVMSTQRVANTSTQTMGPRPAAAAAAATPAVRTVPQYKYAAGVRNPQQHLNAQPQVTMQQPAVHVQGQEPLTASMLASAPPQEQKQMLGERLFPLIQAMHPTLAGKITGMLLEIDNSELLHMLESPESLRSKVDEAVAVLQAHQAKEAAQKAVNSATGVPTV
# MT1-MMP act inh = blockers of MT1-MMP proenzyme processing, primary screen, HT1080 RFP-PRO-GFP cells, GFP/RFP fluorescence. Matrix metalloproteinase-14 (Homo sapiens), P50281. GFP/RFP ratio fluorescence, overnight; percent of plate control window, DMSO zero. GFP/RFP ratio change, % at 20 µM. 360,000 tested, 0.061% active;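 active = GFP/RFP ratio change of at least 30% with cell ATP level not reduced by more than half and red fluorescence within 50% of control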; note: strong numbers were not always called active
#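 Assay system: HT1080 RFP-PRO-GFP cells | Dosing: 20 µM single dose, 1% DMSO | Incubation: Cells overnight before dosing, compound overnight, 37 °C, 5% CO2 | Evaluation: GFP/RFP fluorescence ratio | Control set: DMSO-only wells and HT1080 RFP-L50D-GFP cell wells as references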
# Rce1 inh = yeast Rce1p protease inhibitors, primary screen, biochemical, fluorescence, cell-free homogeneous; CAAX prenyl protease 2 (Saccharomyces cerevisiae (strain ATCC 204508 / S288c)), Q03530; 290,000 tested, 0.27% active; yeast membranes, quenched prenylated peptide cleavage fluorescence; calls only;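 active = fall in fluorescence gain of 50% or more versus controls, with final raw signal at or below 3038400; inconclusive = same 50% fall but final raw signal above 3038400; inactive = fall in fluorescence gain under 50%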;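 note: plate controls were neutral control wells for no effect and wells lacking membranes for full effect; tested at 10 µM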
# Target sequence (Q03530 whole entry, looked up): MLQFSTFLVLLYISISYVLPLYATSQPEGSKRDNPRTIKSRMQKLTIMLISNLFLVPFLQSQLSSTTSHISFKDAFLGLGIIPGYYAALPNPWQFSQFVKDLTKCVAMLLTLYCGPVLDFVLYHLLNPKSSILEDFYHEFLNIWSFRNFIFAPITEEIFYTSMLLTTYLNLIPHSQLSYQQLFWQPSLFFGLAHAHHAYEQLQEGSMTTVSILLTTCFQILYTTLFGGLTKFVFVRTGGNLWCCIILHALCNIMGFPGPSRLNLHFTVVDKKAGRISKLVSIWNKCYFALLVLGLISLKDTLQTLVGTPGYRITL
# eIF4H inh = human eIF4H binding inhibitors, primary screen, translation initiation inhibitor project, biochemical, uHTS, fluorescence polarization; Eukaryotic translation initiation factor 4H (Homo sapiens), Q15056; eIF4H fluorescence polarization binding assay; inhibition, % at 35 µM; 290,000 tested, 0.94% active; AID 2012, 2009;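 active = 50% or more with normal probe brightness, or confirmed in later tests; inconclusive = above 50% with abnormal brightness, or retests that disagree; inactive = below 50% or failed in later tests; about a fifth of its hits are not listed in these tables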;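 note: calls also rest on retests at 20 µM and on dose response follow-up; 0% = protein and probe with vehicle and 100% = probe without protein; strong numbers were not always called active; many hits fall short of the cut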
# Env fusion inh = inhibitors of HIV-1 Env-driven cell-cell fusion, primary screen, HeLa-JRFL effector, CEM21 target cells, luciferase; inhibition, % at 12.3 µM; 360,000 tested, 1.1% active;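 active = mean replicate inhibition score of at least 50 and every replicate individually at or above 50; inconclusive = only one of the two criteria met; inactive = mean below 50 and not all replicates reaching 50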;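 note: 0% = plate neutral controls and 100% = maraviroc near 300 nM; one replicate is shown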
# UUG fidelity = modulators of yeast start codon fidelity, primary screen, whole organism, S. cerevisiae, single point, plate reader | 350,000 tested, 0.13% active | AID 602363, 2012 | S. cerevisiae UUG-firefly luciferase reporter, luminescence/redox ratio | activity score, % at 18.7 µM;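 active = replicate mean at a twofold rise or more, about +100% in these data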;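 note: firefly luciferase made from a UUG start codon reports start codon fidelity; reporter light over untreated wells divided by growth signal over untreated wells; some hits fall short of that in this replicate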
# CSC inhib = cancer stem cell viability inhibitors, primary screen, luminescence; 300,000 tested, 1.1% active; inhibition, % at 7.5 µM; cancer stem cell-like cells viability;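 active = mean at 75% or more and at least half the replicates too; inconclusive = mean and replicates disagree; tested in HMLE shEcad cells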;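 note: 0% = median of negative and 100% = median of positive control wells; the first replicate is given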
# eIF4H inh retest = recorded beside eIF4H inh, whose call it bears; inhibition, %; compound at 20 µM; confirmation average;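 mean of two retest wells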
# PABP FP inh retest = further read-out of PABP FP inh, marked with its call; inhibition, %; compound at 20 µM; confirmation repeats;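 mean of two retest wells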
# MT1-MMP act inh RFP = recorded beside MT1-MMP act inh, whose call it bears; RFP signal change, %; measured here: RFP expression control read;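 0 = vehicle wells; hits needed this value within 50% of zero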
# * marks the source's active call; other numbers are inactive results; i = inactive; ? = inconclusive; · = not tested or not shown. These rows are one share of the data. The share of hits here may be higher or lower than overall.
SMILES,PABP FP inh,MT1-MMP act inh,MT1-MMP act inh RFP,Rce1 inh,eIF4H inh,Env fusion inh,UUG fidelity,CSC inhib,others
O=C(CNC(=O)c1ccc(Br)cc1)Nc1ccc(Br)cc1C(=O)c1ccccc1,-2,2,0,i,-10,-1,·,8,
Cc1ccc(S(=O)(=O)N(C)CCCC(=O)N2CCN(c3ccccn3)CC2)cc1,1,1,-6,i,-16,·,-2,8,
COCCCn1c(N)c(C(=O)OC(C)COC)c2nc3ccccc3nc21 (configuration not stated),4,-3,-2,i,-3,·,5,1,
CCCCn1c(=O)c(C(=O)Nc2cnccn2)c(O)c2ccccc21,-3,-11,-22,i,3,·,·,-3,
O=C(COC(=O)c1cc(Br)cc(Br)c1O)NC12CC3CC(CC(C3)C1)C2,·,4,-4,·,·,7,-13,·,
Nc1ccc(C2(c3ccc(N)cc3)CCCCC2)cc1,1,2,-1,i,-6,-24,·,4,
COc1ccc(OC)c(NP(=O)(Oc2ccc(Cl)cc2)Oc2ccc(Cl)cc2)c1,6,4,2,i,-4,-18,-11,28,
COC(=O)C1=C(c2cc3ccccc3s2)C[C@@H]2CC[C@H]1N2C(=O)NC1CC1,·,0,-2,i,·,10,-18,3,
CC1OC(C[N+](C)(C)C)CC1O (configuration not stated),·,3,6,·,·,16,-4,-9,
C[C@H]1CC[C@@H]2[C@@H](C)[C@H]3[C@H](C[C@H]4[C@@H]5CC=C6C[C@@H](O[C@@H]7O[C@H](CO)[C@H](O)[C@H](O[C@@H]8O[C@H](CO)[C@@H](O)[C@H](O)[C@H]8O)[C@H]7O[C@@H]7O[C@@H](C)[C@H](O)[C@@H](O)[C@H]7O)CC[C@]6(C)[C@H]5CC[C@]34C)N2C1,14,-7,5,i,16,·,-3,-11,
CCN(C(=O)COC(=O)c1cc(C)n(C2CC2)c1C)c1ccccc1,·,-2,0,·,·,-8,-8,14,
O=C(Nc1ccc(F)cc1)N1CC2CC(C1)c1cccc(=O)n1C2 (configuration not stated),0,2,5,i,0,-57,-4,-4,
O=c1[nH]sc2cc(F)ccc12,11,2,4,i,1,14,·,·,
CC(C)Oc1ccc(CCN)cc1Cl,1,-4,2,i,6,·,-10,9,
O=C(c1c[nH]c2ccc(S(=O)(=O)N3CCC4(CC3)OCCO4)cc2c1=O)N1CCC2(CC1)OCCO2,11,-1,2,i,1,1,·,-14,
O=c1cc(CN2CCNCC2)nc2sccn12,-2,-1,0,i,-2,24,-4,-18,
CCN1CCN(Cc2cccnc2)CC1,13,1,1,i,4,5,-14,3,
COc1ccc(-n2c(C)nc3ccccc3c2=O)c([N+](=O)[O-])c1,3,0,-4,i,-3,3,-21,-1,
C=C(C)[C@@H]1[C@H]2OC(=O)[C@H]1[C@]1(O)C[C@H]3O[C@]34C(=O)O[C@H]2[C@]14C,·,0,2,·,·,-13,2,·,
NC(=O)OCCSc1nnc(-c2cccc(C(N)=S)c2)o1,-17,6,0,i,2,·,-24,-9,
Cc1cccc(C(=O)Nc2ccc3c(c2)CC2(C(=O)N(C)C(=O)N(C)C2=O)C2CCCN32)c1 (configuration not stated),0,1,8,i,5,·,-24,-12,
Cc1ccc(CNCCc2ccc(F)cc2)s1,1,-2,0,i,-4,10,-18,-5,
COC(=O)CN1C(=O)CN=C(c2ccccc2Cl)c2cc(Br)ccc21,8,-1,-1,i,-2,10,13,-5,
CC1CCN(C(=O)COC(=O)c2cn(C)c3ccccc23)CC1,·,1,-1,·,·,-8,-22,·,
CCn1c(O)c(C=NCc2cccs2)c(=O)[nH]c1=O,11,0,4,i,3,-68,-10,-6,
CCOc1ccc(C2(C#N)CC[N+](C)(C)CC2)cc1,-3,1,1,i,-1,·,-15,3,
Cc1ccc(O)c(CN2CCN(c3ccccc3)CC2)c1,-9,7,-11,i,-10,-48,-1,8,
Cc1cccc(-n2c(C)nc3cc(C(=O)N4CCC5(CC4)OCCO5)ccc32)c1,-8,3,1,i,-2,·,5,14,
CCCCn1nnnc1C(c1ccc(OC)cc1)N1CCC2(CC1)C(=O)NCN2c1ccccc1 (configuration not stated),·,3,2,·,·,-66,14,·,
CN1C(=O)C(=Cc2ccccc2OCc2ccc(Cl)cc2)C(=O)N(C)C1=O,3,1,-1,i,10,-28,·,34,
COc1ccc(C=C2C(=O)N(C)C(=O)N(C)C2=O)cc1CSc1ccccn1,67*,-2,1,i,?,·,-1,0,
COc1ccc(-c2nn(CCC#N)cc2C(=O)Nc2ccccc2Br)cc1[N+](=O)[O-],-1,1,-2,i,-7,-4,·,1,
CC1(C)C2CC=C(CN3CCC(O)CC3)C1C2 (configuration not stated),1,16,5,i,-13,·,-12,2,
COC(=O)C1=C(c2cc3ccccc3s2)C[C@@H]2CC[C@H]1N2C(=O)NCc1ccco1,·,0,3,i,·,5,-21,-4,
FC(F)(F)c1ccc(-c2ccc3c(c2)CNCc2cnnn2-3)cc1,·,4,3,·,·,-34,-10,·,
COc1ccc(Cn2c(O)c(C=NCCN3CCOCC3)c(=O)[nH]c2=O)cc1,-4,2,4,i,-2,·,-22,-9,
Cn1nccc1C(=O)N1CCC2(CC1)OCCO2,0,-1,5,i,10,·,-9,-8,
CC(C)S(=O)(=O)N1Cc2ccccc2-n2nncc2C1,·,3,4,·,·,21,-6,·,
O=C1N[C@@H](Cc2ccccc2)C(=O)N2[C@H]1C[C@H]1c3ccccc3N(OOSc3ccccc3)[C@H]12,·,-1,-5,i,·,-12,-5,4,
COc1ccccc1NC(=O)N1C[C@@H]2C[C@@H](C1)c1cccc(=O)n1C2,-1,-1,-2,i,4,·,-8,-2,
CCn1c(NN=O)nc2ccccc21,-4,-7,-9,i,22,-1,-17,52,
CCSC(=O)N1CCCCCC1,·,-2,6,·,·,·,-9,2,
CC(=O)OC1=CC[C@H]2[C@@H]3CC[C@H]4C[C@H](OC(C)=O)[C@@H](OC(C)=O)C[C@]4(C)[C@H]3CC[C@]12C,·,0,0,·,·,·,9,-12,
Cc1nc2sccc2c(=O)n1-c1ccccc1Cl,10,2,2,i,2,-22,-9,4,
c1ccc2c(c1)CNCc1cnnn1-2,·,3,8,·,·,-6,-7,·,
CCOc1ccc(C(C)=O)cc1Cn1ccsc1=N,22,0,2,i,13,13,14,-5,
COc1ccc(CN2C(=O)NC(=O)/C(=C/c3ccc(OC)c(OC)c3OC)C2=O)cc1,48,-2,2,i,69*,4,·,0,eIF4H inh retest=64*;PABP FP inh retest=29
COc1ccc(CC2C(=O)NC(=O)NC2=O)c(OC)c1,10,0,3,i,8,·,-17,-7,
CCN(C(=O)COC(=O)Cc1ccccc1)c1c(N)n(Cc2ccccc2)c(=O)[nH]c1=O,·,-4,-1,·,·,·,-5,-4,
CCCC12CN3CCN(CC(C3)/C1=N\NC(=O)c1ccncc1)C2,-2,-2,0,i,0,18,·,-13,
CCN(CC)P(=O)(NC(=O)c1cccn1C)N(CC)CC,?,0,2,i,4.4*,-5,·,-11,eIF4H inh retest=54*
CC(C)(C)NC(=O)Cn1cc(C(=O)c2ccccc2F)c2ccccc21,-8,-7,-1,i,-7,12,-9,8,
C/C=C/c1ccc2c(c1)OCO2,·,0,6,·,·,·,1,9,
CC(C)(C)c1ccc(C(=O)C2CCCN(Cc3ccon3)C2)cc1 (configuration not stated),1,6,5,i,-6,14,-18,-4,
O=c1cccc2n1CC1CNCC2C1 (configuration not stated),1,2,10,i,-1,-25,7,-2,
CCc1nccc2c1[nH]c1ccccc12,·,0,1,?,·,·,-6,-5,
COc1cc(OC)c2c(c1)O[C@@H](c1ccc(OC)c(OC)c1)[C@H](O)C2,4,2,0,i,-1,-5,6,3,
CCOc1ccccc1N1C(=O)CC(=O)NC1=O,?,-6,1,i,?,-9,-36,-5,
CCN1C(=O)NC(=O)/C(=C\c2cn(CC(=O)O)c3ccccc23)C1=O,?,·,·,i,?,·,·,4,
CCOC(=O)C1(c2ccccc2)CCN(CCC(=O)Nc2ccccc2OC)CC1,2,-6,-5,i,-7,10,-3,20,
# (continued)
SMILES,PABP FP inh,MT1-MMP act inh,MT1-MMP act inh RFP,Rce1 inh,eIF4H inh,Env fusion inh,UUG fidelity,CSC inhib,others
O=c1c2ccccc2nc(/C=C/c2ccc(O)cc2)n1-c1ccccc1O,-3,-45,1,i,-13,20,6,34,
CC/C(=N\Nc1cccc2ccccc12)c1c(O)[nH]c(=O)[nH]c1=O,-6,-6,-2,i,54*,29,·,19,eIF4H inh retest=86*;PABP FP inh retest=48
c1ccc(CCN2CCC3(CC2)OCCO3)cc1,·,0,3,i,·,3,·,19,
Cc1cc(OC(C)C(=O)NCC(O)c2ccccc2)c2c3c(c(=O)oc2c1)CCCC3 (configuration not stated),16,-1,-7,i,-3,-19,5,-7,
CCOc1ccc(N2C(=O)NC(=O)/C(=C\c3ccc(N4CCOCC4)cc3C)C2=O)cc1,32,-2,8,·,50,-10,·,·,
COC(=O)C1=C(c2cc3ccccc3s2)C[C@@H]2CC[C@H]1N2C(=O)NCc1ccccc1,·,-3,-5,i,·,2,-16,-5,
O=C(c1ccccc1)c1ccc(N=Nc2c(O)[nH]c(=O)[nH]c2=O)cc1,2,4,-10,·,11,2,·,-7,
O=c1[nH]c(=S)n(Cc2ccc(F)cc2)c(O)c1/C=N/N1CCCCCC1,4,-6,2,i,20,2,·,25,
O=C1NC(=O)C(=Cc2ccc(SC3CCCCC3)o2)C(=O)N1,-4,0,6,i,?,-22,·,23,
O=C(c1ccc2c(c1)ncn2C1CCCCCC1)N1CCC2(CC1)OCCO2,-6,-1,-2,i,5,·,-14,-11,
Cn1c(O)c(C=NC2CC3CCC2(C)C3(C)C)c(=O)[nH]c1=O (configuration not stated),2,4,-1,i,-11,·,-11,-11,
CSc1ccc(C(=O)C2CCCN(Cc3ccn[nH]3)C2)cc1 (configuration not stated),4,-1,0,i,-4,8,·,30,
O=C(Cc1ccccc1)N1CCN(Cc2ccc([N+](=O)[O-])cc2)CC1,7,4,3,i,9,27,·,4,
CN1C2CCC1CC(OC(=O)c1ccc(Cl)cc1)(C(=O)O)C2 (configuration not stated),12,8,-3,i,8,-9,·,-36,
Cc1c(C(=O)O)cccc1-n1c(C)cc(/C=C2\C(=O)NC(=O)N(c3ccc4c(c3)OCO4)C2=O)c1C,-14,0,7,i,81,5,·,9,eIF4H inh retest=17;PABP FP inh retest=19
CN(C)c1nc(-c2ccccc2)[n+](C)s1,3,-4,-2,i,-3,·,-14,6,
Cc1cc(=O)oc2c(C)c(OCC(=O)N3C[C@H]4C[C@@H](C3)c3cccc(=O)n3C4)ccc12,3,1,2,i,-7,·,-14,-10,
CC1(C)Cc2c(C#N)c(N3CCNCC3)nc(-c3ccco3)c2CS1,47*,-7,-7,i,85*,5,-20,1,eIF4H inh retest=78*;PABP FP inh retest=59*

# Bioassay records deposited in PubChem by several laboratories.
